High-throughput results (PubChem)
HIV Env fusion = HIV envelope-mediated fusion inhibition. 360,000 tested, 1.1% active. inhibition, % at 12.3 µM. HeLa-JRFL Env/CEM21 cell fusion, luciferase;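 active = mean replicate inhibition score of at least 50 and every replicate individually at or above 50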;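 note: 0% = plate neutral controls and 100% = maraviroc near 300 nM; one replicate is shown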
UUG fidelity = yeast start codon fidelity modulation | 350,000 tested, 0.13% active | activity score, % at 18.7 µM | S. cerevisiae UUG-firefly luciferase reporter, luminescence/redox ratio | AID 602363;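 active = replicate mean at a twofold rise or more, about +100% in these data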;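 note: firefly luciferase made from a UUG start codon reports start codon fidelity; reporter light over untreated wells divided by growth signal over untreated wells; some hits fall short of that in this replicate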
Numbers without * were called inactive; [ ] = dose if it differs, or a comment. Only part of the results is shown; the hit share may differ from the screen's.

SMILES | HIV Env fusion | UUG fidelity
N#C[C@H]1[C@@H](c2ccc(C#CC3CCCC3)cc2)[C@@H](CO)N1S(=O)(=O)c1ccccc1 | -20[16.7 µM] | -6
C[C@@H]1CCCCO[C@@H](CN(C)C(=O)Nc2ccc(C(F)(F)F)cc2)[C@H](C)CN([C@@H](C)CO)C(=O)c2cc(NS(=O)(=O)c3ccc(Cl)cc3)ccc2O1 | -20[16.7 µM] | 9
C[C@H]1CN([C@@H](C)CO)S(=O)(=O)c2ccc(C#CC3CC3)cc2O[C@@H]1CN(C)Cc1ccccc1F | 18[16.7 µM] | 7
COc1ccc(S(=O)(=O)N(C)C[C@@H]2OCCCC[C@H](C)Oc3ccc(NC(=O)c4ccccc4)cc3C(=O)N([C@@H](C)CO)C[C@H]2C)cc1 | -11[16.7 µM] | -10
C[C@@H]1CN([C@@H](C)CO)C(=O)c2cc(-c3cccc(C(=O)N(C)C)c3)cnc2O[C@H]1CN(C)S(=O)(=O)c1cccc(F)c1 | 7[16.7 µM] | -2
O=C(C[C@H]1C[C@H]2c3cc(NC(=O)c4cccnc4)ccc3O[C@H]2[C@H](CO)O1)NCc1cccnc1 | -2[16.7 µM] | -14
CC(C)NC(=O)Nc1ccc2c(c1)C(=O)N([C@@H](C)CO)C[C@H](C)[C@@H](CN(C)S(C)(=O)=O)OCCCC[C@@H](C)O2 | -9[16.7 µM] | 8
O=C(Cc1ccccn1)N[C@@H]1CC[C@@H](CC(=O)N2CCCCC2)O[C@H]1CO | 23[16.7 µM] | -1
C/C=C/c1cnc2c(c1)C(=O)N([C@H](C)CO)C[C@H](C)[C@H](CN(C)C(=O)NCCC)O2 | -4[16.7 µM] | -7
O=C(C[C@@H]1C[C@H]2c3cc(NC(=O)CC4CC4)ccc3O[C@H]2[C@H](CO)O1)NCc1ccncc1 | -10[16.7 µM] | -5
CO[C@@H]1CN(C)C(=O)c2cc(NC(=O)c3ccccc3)ccc2OC[C@@H](C)N(C(=O)C2CC2)C[C@@H]1C | -38[16.7 µM] | 5
C[C@H]1CCCCO[C@H](CN(C)C(=O)C2CCCCC2)[C@@H](C)CN([C@@H](C)CO)C(=O)c2cc(NC(=O)C3CCCCC3)ccc2O1 | -19[16.7 µM] | 18
CCCC(=O)Nc1ccc2c(c1)C(=O)N(C)[C@@H]1CC[C@@H](CC(=O)O)O[C@H]1CO2 | 2[16.7 µM] | -1
C[C@@H]1CN([C@H](C)CO)S(=O)(=O)c2ccc(-c3cccc(F)c3)cc2O[C@H]1CN(C)C | 28[16.7 µM] | 8
O=C(NCC[C@H]1CC[C@@H](NC(=O)c2cnccn2)[C@@H](CO)O1)c1ccc2c(c1)OCO2 | 11[16.7 µM] | -16
C/C=C/c1cnc2c(c1)C(=O)N([C@@H](C)CO)C[C@H](C)[C@H](CN(C)Cc1ccccc1F)O2 | 10[16.7 µM] | 9
C[C@H](CO)N1C[C@H](C)[C@H](CN(C)Cc2ccncc2)Oc2ccc(NC(=O)Cc3ccccc3)cc2C1=O | 23[16.7 µM] | -2
C[C@H]1CN([C@@H](C)CO)C(=O)Cc2cc(NS(=O)(=O)c3ccc(F)cc3)ccc2O[C@H]1CN(C)C(=O)Nc1cccc2ccccc12 | 3[16.7 µM] | 5
COc1ccc(S(=O)(=O)Nc2ccc3c(c2)C(=O)N([C@@H](C)CO)C[C@@H](C)[C@H](CN(C)S(=O)(=O)c2ccc(F)cc2)O3)cc1 | 11[16.7 µM] | -3
C[C@H](CO)N1C[C@H](C)[C@H](CN(C)S(=O)(=O)c2ccc(Cl)cc2)OCCCC[C@H](C)Oc2ccc(NC(=O)c3ccccc3)cc2C1=O | 1[16.7 µM] | -11
CO[C@@H]1CN(C)C(=O)c2cc(NC(C)=O)ccc2OC[C@@H](C)N(Cc2ccccc2F)C[C@@H]1C | -13[16.7 µM] | -27
CC(C)CC#Cc1ccc2c(c1)O[C@H](CN(C)Cc1ccc(F)cc1)[C@@H](C)CN([C@@H](C)CO)S2(=O)=O | 7[16.7 µM] | 21
[N-]=[N+]=Nc1ccccc1C[C@@]1(C(=O)NCc2ccccc2)N=C(c2ccc(OCCCO)cc2)O[C@@H]1c1ccccc1 | 42[16.7 µM] | 23
C[C@H](CO)N1C[C@H](C)[C@H](CN(C)C(=O)Nc2ccc(C(F)(F)F)cc2)Oc2ccc(NC(=O)Nc3ccccc3)cc2C1=O | 16[16.7 µM] | 5
O=C(Nc1ccc(F)cc1)N[C@@H]1CC[C@@H](CCn2cc(-c3ccc(F)cc3)nn2)O[C@H]1CO | -3[16.7 µM] | -28
O=C(C[C@H]1CC[C@@H](NC(=O)C2CCC2)[C@H](CO)O1)NCCCN1CCOCC1 | -8[16.7 µM] | -11
C[C@H]1CN([C@@H](C)CO)C(=O)Cc2cc(NS(C)(=O)=O)ccc2O[C@@H]1CN(C)CC1CCCCC1 | 4[16.7 µM] | -13
C[C@H](CO)N1C[C@H](C)[C@@H](CN(C)S(C)(=O)=O)Oc2ncc(C#CC3CCCCC3)cc2C1=O | -1[16.7 µM] | 5
C[C@@H]1CN([C@@H](C)CO)C(=O)c2cc(C#Cc3cccc(F)c3)cnc2O[C@@H]1CN(C)C(=O)C1CCCCC1 | 15[16.7 µM] | 9
C[C@H](CO)N1C[C@H](C)[C@H](CN(C)Cc2ccc(Cl)c(Cl)c2)Oc2ccc(NC(=O)Nc3cccc4ccccc34)cc2C1=O | 8[16.7 µM] | -8
COCC(=O)N(C)C[C@H]1Oc2cc(C#CCC3CCCC3)ccc2S(=O)(=O)N([C@H](C)CO)C[C@@H]1C | 5[16.7 µM] | 9
CNC(=O)C[C@H]1CC[C@@H]2[C@H](COc3ccc(NC(=O)c4cccc(OC)c4)cc3C(=O)N2C)O1 | -7[16.7 µM] | 30
COc1ccc(C#Cc2cnc3c(c2)C(=O)N([C@H](C)CO)C[C@H](C)[C@H](CN(C)Cc2ccncc2)O3)cc1OC | -1[16.7 µM] | 0
COc1ccc(S(=O)(=O)Nc2ccc3c(c2)C(=O)N([C@H](C)CO)C[C@H](C)[C@H](CN(C)S(=O)(=O)c2c(C)noc2C)OCCCC[C@@H](C)O3)cc1 | -18[16.7 µM] | -22
C/C=C/c1cnc2c(c1)C(=O)N([C@H](C)CO)C[C@H](C)[C@@H](CN(C)C(=O)NC1CCCCC1)O2 | -18[16.7 µM] | -1
COc1ccc(NC(=O)N(C)C[C@@H]2Oc3c(NS(=O)(=O)c4ccc(OC)cc4)cccc3C(=O)N([C@H](C)CO)C[C@H]2C)cc1 | -27[16.7 µM] | 8
CCCN(C)C[C@@H]1Oc2cc(-c3ccccc3)ccc2S(=O)(=O)N([C@H](C)CO)C[C@@H]1C | 10[16.7 µM] | -4
C[C@@H]1CN([C@H](C)CO)S(=O)(=O)c2ccc(-c3ccc(C#N)cc3)cc2O[C@@H]1CN(C)C | 1[16.7 µM] | 4
C[C@@H]1CN([C@H](C)CO)C(=O)c2cc(NC(=O)c3ccccc3)ccc2O[C@@H](C)CCCCO[C@H]1CN(C)Cc1ccc(C(=O)O)cc1 | 0[16.7 µM] | -9
C[C@@H]1CN([C@H](C)CO)C(=O)c2cc(NC(=O)C3CCCCC3)ccc2O[C@H]1CN(C)S(=O)(=O)c1ccc(Cl)cc1 | -16[16.7 µM] | 13

Part of the list above, set out differently:
HIV Env fusion | UUG fidelity | structure
10[16.7 µM] | -4 | CCCN(C)C[C@@H]1Oc2cc(-c3ccccc3)ccc2S(=O)(=O)N([C@H](C)CO)C[C@@H]1C
1[16.7 µM] | 4 | C[C@@H]1CN([C@H](C)CO)S(=O)(=O)c2ccc(-c3ccc(C#N)cc3)cc2O[C@@H]1CN(C)C
-18[16.7 µM] | -1 | C/C=C/c1cnc2c(c1)C(=O)N([C@H](C)CO)C[C@H](C)[C@@H](CN(C)C(=O)NC1CCCCC1)O2
-18[16.7 µM] | -22 | COc1ccc(S(=O)(=O)Nc2ccc3c(c2)C(=O)N([C@H](C)CO)C[C@H](C)[C@H](CN(C)S(=O)(=O)c2c(C)noc2C)OCCCC[C@@H](C)O3)cc1

Further compounds:
SMILES | HIV Env fusion | UUG fidelity
CC(C)CC#Cc1cnc2c(c1)C(=O)N([C@H](C)CO)C[C@@H](C)[C@@H](CN(C)C(=O)c1ccc3c(c1)OCO3)O2 | -2[16.7 µM] | 15
CC(C)NC(=O)N[C@@H]1CC[C@H](CCn2cc(-c3ccccc3)nn2)O[C@@H]1CO | 5[16.7 µM] | 0
O=C(NCC[C@H]1CC[C@@H](NS(=O)(=O)c2ccc(F)cc2)[C@H](CO)O1)Nc1ccc(F)cc1 | 2[16.7 µM] | -8
CCC(=O)N[C@H]1C=C[C@@H](CC(=O)NCc2ccc(OC)cc2)O[C@@H]1CO | 15[16.7 µM] | -7
C[C@@H]1CCCCO[C@H](CN(C)S(C)(=O)=O)[C@@H](C)CN([C@@H](C)CO)C(=O)c2cc(NC(=O)c3ccncc3)ccc2O1 | 5[16.7 µM] | 10
C[C@@H]1CCCCO[C@H](CN(C)S(=O)(=O)c2ccccc2)[C@@H](C)CN([C@@H](C)CO)C(=O)c2cc(NC(=O)c3ccccc3)ccc2O1 | -39[16.7 µM] | 13
C[C@@H]1CCCCO[C@@H](CN(C)C(=O)CCCN(C)C)[C@H](C)CN([C@H](C)CO)C(=O)c2cc(NC(=O)Nc3ccccc3)ccc2O1 | -3[16.7 µM] | 0
C[C@@H]1CCCCO[C@@H](CN(C)S(=O)(=O)c2ccccc2)[C@@H](C)CN([C@@H](C)CO)C(=O)c2cc(NC(=O)C3CCCCC3)ccc2O1 | 16[16.7 µM] | -8
C[C@@H]1CCCCO[C@H](CN(C)S(=O)(=O)c2cccs2)[C@@H](C)CN([C@H](C)CO)C(=O)c2cc(NC(=O)c3ccncc3)ccc2O1 | -1[16.7 µM] | 8
C[C@@H]1CN([C@@H](C)CO)C(=O)c2cc(NC(=O)CCC(F)(F)F)ccc2O[C@@H]1CN(C)C(=O)NC1CCCCC1 | 10[16.7 µM] | -3
Cc1ccc(S(=O)(=O)Nc2cccc3c2O[C@@H](CN(C)Cc2ccc(-c4ccccc4)cc2)[C@H](C)CN([C@@H](C)CO)C3=O)cc1 | 19[16.7 µM] | -10
C[C@H](CO)N1C[C@H](C)[C@H](CN(C)Cc2ccc(-c3ccccc3)cc2)Oc2ccc(NC(=O)CCCCCC(=O)Nc3ccccc3N)cc2CC1=O | 11[16.7 µM] | 9
CNC[C@H]1Oc2ccc(NC(=O)NC3CCCCC3)cc2CC(=O)N([C@@H](C)CO)C[C@H]1C | -9[16.7 µM] | 16
CNC[C@@H]1Oc2ccc(NC(=O)Nc3ccc(C(F)(F)F)cc3)cc2C(=O)N([C@H](C)CO)C[C@H]1C | -27[16.7 µM] | 11
C[C@H]1CN([C@@H](C)CO)C(=O)c2cc(-c3ccncc3)cnc2O[C@@H]1CN(C)C(=O)c1cccc(F)c1 | -10[16.7 µM] | 12
COc1ccc(S(=O)(=O)Nc2cccc3c2O[C@@H](CN(C)S(=O)(=O)c2ccc(Cl)cc2)[C@@H](C)CN([C@H](C)CO)C3=O)cc1 | -47[16.7 µM] | 4
COc1ccccc1NC(=O)N[C@H]1CC[C@H](CCNS(=O)(=O)c2ccc(F)cc2)O[C@H]1CO | -5[16.7 µM] | 28
C[C@@H]1CN([C@@H](C)CO)C(=O)c2cc(C3=CCCC3)cnc2O[C@@H]1CN(C)Cc1ccccc1 | -6[16.7 µM] | -2
CCCN(C)C[C@H]1Oc2ncc(C#CCOC)cc2C(=O)N([C@H](C)CO)C[C@H]1C | 9[16.7 µM] | 4
C[C@@H]1CN([C@@H](C)CO)C(=O)c2cc(C#CCN(C)C)cnc2O[C@@H]1CN(C)Cc1ccccn1 | 5[16.7 µM] | -23
COc1ccc(NC(=O)N(C)C[C@@H]2OCCCC[C@@H](C)Oc3ccc(NC(=O)Cc4ccccc4)cc3C(=O)N([C@@H](C)CO)C[C@@H]2C)cc1 | -74[16.7 µM] | 10
CC(C)NC(=O)N(C)C[C@H]1Oc2cc(C#CCN(C)C)ccc2S(=O)(=O)N([C@H](C)CO)C[C@@H]1C | -36[16.7 µM] | 9
CCCNC(=O)C[C@@H]1CC[C@@H]2[C@H](COc3ccc(NC(=O)c4cccc(F)c4)cc3C(=O)N2C)O1 | 16[16.7 µM] | -1
C[C@@H]1CN([C@@H](C)CO)C(=O)c2cc(C#CCN(C)C)cnc2O[C@@H]1CN(C)S(C)(=O)=O | -12[16.7 µM] | 15
COc1ccc(NC(=O)Nc2ccc3c(c2)C(=O)N([C@@H](C)CO)C[C@H](C)[C@@H](CN(C)C(=O)Cc2ccccc2)OCCCC[C@H](C)O3)cc1 | 38[16.7 µM] | 12
CO[C@H]1CN(C)C(=O)c2ccc(NC(=O)Nc3ccccc3)cc2OC[C@H](C)N(C(C)=O)C[C@H]1C | 10[16.7 µM] | 4
CCNC(=O)C[C@@H]1CC[C@H]2[C@@H](COc3ccc(NC(=O)c4ccccc4)cc3C(=O)N2C)O1 | -20[16.7 µM] | -3
C[C@@H]1CCCCO[C@H](CN(C)Cc2ccc(Cl)c(Cl)c2)[C@H](C)CN([C@@H](C)CO)C(=O)c2cc(NC(=O)Nc3ccc4c(c3)OCO4)ccc2O1 | 3[16.7 µM] | -2

Ordered by value in UUG fidelity (lowest first): some entries from above.
molecule	UUG fidelity
CO[C@@H]1CN(C)C(=O)c2cc(NC(C)=O)ccc2OC[C@@H](C)N(Cc2ccccc2F)C[C@@H]1C	-27
O=C(NCC[C@H]1CC[C@@H](NC(=O)c2cnccn2)[C@@H](CO)O1)c1ccc2c(c1)OCO2	-16
C[C@@H]1CN([C@@H](C)CO)C(=O)c2cc(-c3cccc(C(=O)N(C)C)c3)cnc2O[C@H]1CN(C)S(=O)(=O)c1cccc(F)c1	-2
